TSHR ag: activates the human thyroid stimulating hormone receptor; P16473; HEK293-CNG-TSHR cells (CNG channel as cAMP sensor), membrane potential dye, cAMP; Potency, µM (doses to about 57.1 µM), for inactives: top-dose activation, hits mostly activators; 0.48% of 73,000 active; AID 926; active = well fitted activation curve of enough size with the parental cells flat; inconclusive = any curve in the parental cells; inactive = parental cells flat and receptor cells flat or falling; note: potency is the fitted concentration of half-maximal effect; % of control where 0% means no effect; weak receptor curves with flat parental cells got no call and are not listed
Target sequence (P16473 whole entry, looked up): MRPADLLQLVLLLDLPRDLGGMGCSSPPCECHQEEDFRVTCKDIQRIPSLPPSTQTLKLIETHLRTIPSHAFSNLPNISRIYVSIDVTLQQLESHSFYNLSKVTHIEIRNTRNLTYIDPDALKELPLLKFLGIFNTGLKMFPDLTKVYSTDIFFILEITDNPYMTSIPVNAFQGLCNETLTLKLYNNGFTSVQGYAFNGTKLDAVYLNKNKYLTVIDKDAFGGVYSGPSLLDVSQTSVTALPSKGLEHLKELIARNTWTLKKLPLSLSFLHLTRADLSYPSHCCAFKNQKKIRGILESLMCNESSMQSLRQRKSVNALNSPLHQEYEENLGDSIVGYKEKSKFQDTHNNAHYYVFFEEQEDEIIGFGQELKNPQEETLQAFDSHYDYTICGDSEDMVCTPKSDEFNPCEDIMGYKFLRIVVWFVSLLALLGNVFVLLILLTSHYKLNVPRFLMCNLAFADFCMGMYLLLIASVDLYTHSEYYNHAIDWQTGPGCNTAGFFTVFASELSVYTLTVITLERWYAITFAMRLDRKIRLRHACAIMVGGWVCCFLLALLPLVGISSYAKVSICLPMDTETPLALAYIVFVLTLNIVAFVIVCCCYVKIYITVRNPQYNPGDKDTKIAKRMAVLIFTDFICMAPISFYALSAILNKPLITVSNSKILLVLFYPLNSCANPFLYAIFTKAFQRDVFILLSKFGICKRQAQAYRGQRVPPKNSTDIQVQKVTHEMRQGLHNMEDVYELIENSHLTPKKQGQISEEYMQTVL
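cAMP rise detected as CNG-channel membrane depolarization by fluorescent dye (emission 590 nm), 30 min after compound, following 60 min dye loading containing 100 uM RO 20-1724 at room temperature. Cells: TSHR/CNG HEK 293, with parental CNG HEK 293 as control.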
A647 autofl: compound fluoresces in the A647 spectral region; Compound fluorescence, A647 channel (570/671 nm), Tris buffer; max dye-equivalent concentration, M; 59,000 tested, under 10 active; AID 592; active means above 1 µM dye equivalent; inconclusive means 0.1 to 1 µM; inactive means 0.1 µM or less;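 note: values scaled relative to a standard on each plate; highest value over a series up to 38 µM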
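Compound fluorescence was measured in 100 mM Tris buffer, pH 8.0, after 15 min at room temperature, using 570 nm excitation and 671 nm emission filters. Signal was normalized to a per-plate Alexa 647 standard curve and expressed as dye-equivalent concentration at each compound concentration.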
A488 fluor: compound fluoresces in the A488 spectral region. compound autofluorescence, A488 spectral region, dye equivalency; hits give high values. max dye equivalency, M. 0.1% of 59,000 active. AID 591; active = above 10 nM dye equivalent; inconclusive = 1 to 10 nM; inactive = 1 nM or less; about half of its hits are not listed in these tables;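 note: highest value over a series up to 38 µM; compound alone in buffer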
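Compounds pin-transferred into 100 mM Tris buffer, pH 8.0, incubated 15 min at room temperature, then imaged with 480 nm excitation/540 nm emission filters. Fluorescence converted to Alexa 488 dye-equivalent concentration via an on-plate six-point A488 standard curve.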
Resorufin fluor: resorufin region autofluorescence; Compound fluorescence, resorufin region 547/598 nm, buffer; hits give high values; 0.04% of 59,000 active; AID 588; max dye-equivalent concentration, M; active = above 10 nM dye equivalent; inconclusive = 1 to 10 nM; inactive = 1 nM or less; a few of its hits are not listed in these tables; note: highest value over a series up to 38 µM
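Compounds in 100 mM Tris, pH 8.0, incubated 15 min at room temperature, then fluorescence read at 547 nm excitation/598 nm emission. Signal converted to dye-equivalent concentration via an on-plate six-point resorufin standard curve, per compound concentration.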
AID923: qHTS Assay for Allosteric/Competitive Inhibitors of Caspase-1: Spectroscopic Profiling in AFC Spectral Region. compound fluorescence, AFC spectral region (405/520 nm); almost no hit is shown here. Potency, µM (highest dose often 57.5 µM), without a hit: at the top dose fluorescence increase, usual class: activators. 1.1% of 75,000 active; active = well fitted activation curve with a large enough effect; inconclusive = small, poorly fitted or top-dose-only effect;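 note: potency is the fitted concentration of half-maximal effect; 0% is about no effect; scaled to a free AFC standard on each plate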
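Baseline compound fluorescence (AFC region, 405 nm ex/520 nm em) taken from the intercept of kinetic reads with 50 nM caspase-1 and 5 uM Ac-WEHD-AFC; normalized to an on-plate AFC standard curve; compounds titrated up to 57 uM.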
Starred values were filed as active, the others as inactive; i = inactive; ? = inconclusive; . = not tested or not shown; [ ] = remark or other dose. Only part of the results is shown, so the mix of outcomes need not match the whole.

The first 5 entries as a preview:
Structure	A647 autofl	Resorufin fluor	A488 fluor	AID923	TSHR ag
COCCN1Cc2cccc(C(=O)Nc3cccc(OC)c3)c2C1=O	1.9e-08	i	i	0.6%	9%
CCN(CCCNC(=O)CCc1nc(-c2ccc(OC)cc2)no1)c1cccc(C)c1	1e-09	i	i	-0.4%	13µM*
COc1ccc(N(CC(=O)Nc2cccc(OC)c2)S(=O)(=O)c2c(C)nn(C)c2C)cc1	9.1e-09	i	i	-0.6%	22%
O=C1CCCN1c1ccc(S(=O)(=O)N2CCN(c3ccccn3)CC2)cc1	5.8e-09	i	i	0.5%	?
COC(=O)CCC(NC(=O)OCc1ccccc1)C(=O)NC(CC(C)C)C(=O)OC (stereo not drawn)	1e-09	i	i	1.3%	-3%

All compounds of this part, previewed entries included:
Structure	A647 autofl	Resorufin fluor	A488 fluor	AID923	TSHR ag
COCCN1Cc2cccc(C(=O)Nc3cccc(OC)c3)c2C1=O	1.9e-08	i	i	0.6%	9%
CCN(CCCNC(=O)CCc1nc(-c2ccc(OC)cc2)no1)c1cccc(C)c1	1e-09	i	i	-0.4%	13µM*
COc1ccc(N(CC(=O)Nc2cccc(OC)c2)S(=O)(=O)c2c(C)nn(C)c2C)cc1	9.1e-09	i	i	-0.6%	22%
O=C1CCCN1c1ccc(S(=O)(=O)N2CCN(c3ccccn3)CC2)cc1	5.8e-09	i	i	0.5%	?
COC(=O)CCC(NC(=O)OCc1ccccc1)C(=O)NC(CC(C)C)C(=O)OC (stereo not drawn)	1e-09	i	i	1.3%	-3%
O=C(O)C1Sc2[nH]c(=O)sc2C2c3cc(Cl)ccc3OC(=O)C12 (stereo not drawn)	1.7e-08	i	i	5.3%	14%
Cc1cccc(NC(=O)c2cc(-c3ccco3)nc3ccccc23)n1	3.4e-08	i	i	4.6%	?
O=C(O)C1CCCCC1C(=O)Nc1ccccc1Nc1ccccc1 (stereo not drawn)	.	.	.	0.9%	14%
CC[N+](CC)(CCO)CCCN1C(=O)C2CC=C(Cl)CC2C1=O (stereo not drawn)	3.3e-08	i	i	-0.4%	-3%[11.4 µM]
O=C(Cc1cccs1)NCc1ccc2c(c1)OCO2	1e-09	i	i	2.6%	2%
Cn1ncc2c(Nc3ccc4ccccc4c3)ncnc21	1e-09	i	i	-0.1%	-7%
C=CCN(C(=O)CCC(=O)Nc1cc(C)on1)C(C(=O)NC(C)(C)C)c1cccc(OC)c1OC (stereo not drawn)	2.1e-08	i	i	0.3%	8%
CN1CCN(C(=O)c2cc3nc(-c4ccccc4)cc(C(F)(F)F)n3n2)CC1	1.5e-08	i	i	-2.2%	12%
COc1cc(OC)cc(C(=O)N2CCCc3ccccc32)c1	.	.	.	-0.7%	?
Cc1cc(C(=O)Nc2ccc(S(=O)(=O)N3CCCC3)cc2)cs1	2.9e-09	i	i	1.2%	4%
COCCCNC(=O)c1c(N)n(/N=C/c2ccccn2)c2nc3ccccc3nc12	1.2e-09	i	i	.	.
CCC(C)NC(=O)c1cnc2n(c1=O)CCS2 (stereo not drawn)	.	.	.	2.9%	?
CCCCNC(=O)c1cc(-c2ccc(F)cc2)on1	2.2e-08	i	i	1.6%	-3%
COc1ccc(CCNC(=O)C(C)OC(=O)c2ccco2)cc1OC (stereo not drawn)	2.2e-08	i	i	0.4%	?
CCc1ccc(S(=O)(=O)NCc2cn3ccsc3n2)s1	1.8e-08	i	i	-0.7%	3%[11.4 µM]
O=C1CC(C(F)(F)C(F)(F)C(F)(F)C(F)F)=Nc2ccccc2N1	.	.	.	-0.9%	-5%
CCCCNC(=O)c1cn(C)c2ccc(S(=O)(=O)N3CCOCC3)cc2c1=O	4.9e-08	i	i	-0.1%	?
CCCN(CCC)CCNC(=O)C1CCN(Cc2nc(-c3ccc(Cl)cc3)oc2C)CC1	1.6e-08	i	i	-0.6%	1%
CCC(=O)Nc1cccc(C(=O)c2ccccc2)c1	1.7e-08	i	i	-0.4%	4%
COCC(=O)NC(C)c1nc2ccccc2[nH]1 (stereo not drawn)	1e-09	i	i	0.7%	-5%[11.4 µM]

More entries.
Structure	A647 autofl	Resorufin fluor	A488 fluor	AID923	TSHR ag
COCCCn1c(SCC(=O)Nc2ccc(C(C)=O)cc2)nc2ccccc2c1=O	1e-09	i	i	0.8%	-8%
O=c1[nH]c(=O)n(C2CCCCCC2)c(O)c1C=NCc1ccc(F)cc1	1e-08	i	i	-0.7%	.
CCO/C=N/c1c(C#N)c(CC#N)nn1-c1ccccc1	.	.	.	4.4%	3%[11.4 µM]
COC(=O)c1ccc(-c2sc3nc(N4CCOCC4)c4c(c3c2N)CCCC4)o1	2e-09	i	i	.	.
CCOc1cc(N2CCOCC2)c(OCC)cc1NC1=NCCCCC1	2.8e-08	i	i	-1.0%	?
Cc1c(C(=O)OCc2ccccc2)nnn1-c1nonc1N	1e-09	i	i	-1.0%	9%
NC(=O)CCCCn1ccc(NC(N)=NCC(F)(F)F)n1	.	.	.	-0.4%	3%
CC(C)OCCCNC(=O)Cn1nc(-c2ccccc2)ccc1=O	1e-09	i	i	0.7%	16%
Cc1cc(C(F)(F)F)nn1CC(=O)Nc1cccnc1	6.5e-09	i	i	0.5%	1%
CCSc1nnc(NC(=O)c2ccccc2)s1	.	.	.	3.2%	4%
CO[C@H]1COC(=O)[C@H](C)COC(=O)[C@@H](Cc2ccccc2)NC(=O)C/C=C\[C@H]1C	.	.	.	-1.2%[11.5 µM]	-6%[11.4 µM]
Cc1nc2cnc(Oc3cccc(Cl)c3)nc2n(CCc2ccccc2)c1=O	3.5e-08	i	i	0.9%	?
Clc1c(-c2nnc3n2CCCCC3)sc2ccccc12	1.7e-09	i	i	0.4%	11%
O=C(Nc1ccccc1)c1cccnc1Nc1ccccc1	1e-09	i	i	-1.2%	7%
Clc1cccc(Nc2nnc(-c3ccccc3)c3ccccc23)c1	.	.	.	-1.4%	24%
COC(=O)[C@@H]1CC[C@H](C)[C@@H](c2ccc(C)cc2)N1C(=O)c1ccc(/C=N\O[C@@H](C)CN2CCCCc3nc(C)c(C)cc32)cc1	.	.	.	-1.4%[11.5 µM]	1%[11.4 µM]
O=C(OC(C(=O)NCc1ccc2c(c1)OCO2)c1ccccc1F)c1ccco1 (stereo not drawn)	4.6e-09	i	i	-1.2%	-5%
Cc1noc(C)c1C(=O)OCC(=O)/C=C1\N(C)c2ccccc2C1(C)C	1.2e-09	i	i	0.6%	?
CCOc1ccc(NS(=O)(=O)c2ccc3[nH]c(=O)oc3c2)cc1	.	.	.	0.7%	?
CC(=O)c1ccc(NC(=O)CCc2c(C)nc3ncnn3c2C)cc1	2.6e-08	i	i	0.4%	2%
Cc1ccc(S(N)(=O)=O)cc1	.	.	.	-1.9%	-2%
COc1ccc(OCC(O)Cn2c(Nc3ccccc3)nc3c2c(=O)n(C)c(=O)n3C)cc1 (stereo not drawn)	2.1e-09	i	i	0.5%	-14%
Cc1cc2c(c(Sc3ccccc3)n1)C(=O)OC2	2e-08	i	i	-1.1%	0%
O=C(NCc1ccco1)c1c[nH]c2ccc(S(=O)(=O)N3CCOCC3)cc2c1=O	3.2e-09	i	i	1.0%	-2%
COc1cc(C(=O)Nc2nc(OC)c(-c3ccccc3)c(OC)n2)cc(OC)c1OC	1e-09	i	i	1.2%	1%

Remaining list, next part
Structure	A647 autofl	Resorufin fluor	A488 fluor	AID923	TSHR ag
O=C(NCc1ccco1)C1CCCCN1S(=O)(=O)c1ccc(F)cc1 (stereo not drawn)	4.4e-08	i	i	-0.4%	2%[11.4 µM]
CCc1ccccc1N(C)C(=O)CCc1nc(-c2ccc(C)cc2)no1	1e-09	i	i	-0.3%	?
CCCc1nc2ccccc2c(=O)n1/N=C/c1ccc(O)c(O)c1	2.6e-08	i	i	0.7%	.
O=C(CCc1ccc(S(=O)(=O)N2CCOCC2)cc1)NCCCN1CCCC1=O	3e-08	i	i	-0.4%	.
CCOc1ccc(NC(=O)C2CCC(N3C(=O)C4CC=CCC4C3=O)CC2)cc1 (stereo not drawn)	1e-09	i	i	0.0%	9%
CCN1CCc2c(C#N)c(N3CCOCC3)nc(NCCO)c2C1	1e-09	i	i	.	.
CN(C)C(=O)c1ccc(-c2ccc3ncnc(NCc4cccs4)c3c2)cc1	1.4e-09	i	i	0.8%	14%
COc1ccc(NC(=O)CSc2nccn2-c2cccc(OC)c2)cc1	9.4e-09	i	i	2.4%	-4%[11.4 µM]
O=C(COC(=O)c1ccc(=O)n(Cc2ccccc2)n1)Nc1ccc2c(c1)OCCO2	6.2e-08	i	i	-1.2%	-1%
CCOC(=O)c1nc(S(C)(=O)=O)ncc1N1CCOCC1	8.9e-09	i	i	0.2%	-7%
C#CCCCC(=O)Nc1ccccc1	.	.	.	-2.9%	4%
COC(=O)c1ccccc1NC(=O)CN1CCC(C(=O)c2ccc3c(c2)OCCO3)CC1	2.1e-09	i	i	-1.0%	?
C=CC(=C)CC(NC)c1ccccc1 (stereo not drawn)	8.3e-09	i	i	3.1%	9%
COC(=O)Cc1c(C)nc2nc(NCc3c(F)cccc3Cl)[nH]n2c1=O	7.9e-09	i	i	2.2%	?
O=C(NC1CCN(Cc2ccccc2)CC1)C1CCN(S(=O)(=O)c2cccc3nsnc23)CC1	3.1e-09	i	i	-0.1%	10%
COCCNC(=O)c1ccc(N2CCCCC2)c(NS(=O)(=O)c2ccc(C)cc2)c1	2.6e-09	i	i	-0.4%	6%
COc1ccc(S(=O)(=O)N2CCCC2C(=O)Nn2cnnc2)cc1 (stereo not drawn)	6.4e-09	i	i	-1.1%	2%
COc1ccc(/C(O)=C2/C(=O)C(=O)N(CCN(C)C)C2c2ccccc2)cc1Cl (stereo not drawn)	.	.	.	1.1%	2%
Cc1ccc2oc(=O)n(CCOc3ccccc3Cl)c2c1	.	.	.	0.1%	?
O=C(NC1CCCC1)C(c1ccc(O)cc1)N(CC1CCCO1)C(=O)C1COc2ccccc2O1 (stereo not drawn)	3.2e-08	i	i	-1.1%	?
CCC(=O)N(CC)c1nc(-c2ccc(OC)cc2)cs1	2.5e-08	i	i	2.1%	5%
Cc1cc(C)c(S(=O)(=O)N2CCN(c3nc4c(c(=O)n(C)c(=O)n4C)n3C)CC2)c(C)c1	4e-08	i	i	0.7%	?
Cc1nc2ccccn2c1/C(O)=C1\C(=O)C(=O)N(CCN2CCOCC2)C1c1cccs1 (stereo not drawn)	2.5e-09	i	i	0.5%	-2%
Cc1noc(C)c1S(=O)(=O)N(C)CC(=O)NCc1ccccc1	1.2e-08	i	i	0.1%	-7%
CCN(Cc1nc2ccccc2c(=O)[nH]1)Cc1cc(=O)oc2cc(C)c(C)cc12	1e-09	i	i	5.1%	?

Other compounds:
Structure	A647 autofl	Resorufin fluor	A488 fluor	AID923	TSHR ag
N/C(COc1ccc(C(=O)O)cc1)=N\O	7.6e-09	i	i	-0.8%	0%
O=C(Oc1ccc(-c2ccccc2)cc1)N1CCCCC1	1.6e-09	i	i	-0.5%	9%
CCN1CCN(C(c2cccs2)C(C)NC(=O)c2cccc(OC)c2OC)CC1 (stereo not drawn)	2.8e-08	i	i	4.7%	-1%
O=C(CSc1n[nH]c(-c2ccco2)n1)N1c2ccccc2Sc2ccccc21	1e-09	i	i	1.4%	27%
COc1ccccc1N1CCN(Cc2ccc(OC)c3ccccc23)CC1	.	.	.	0.2%	-16%
COc1cc(S(=O)(=O)N2CCN(C(=O)c3ccccc3F)CC2)c(OC)cc1NC(C)=O	1e-09	i	i	5.3%	1%

Assay outcomes (PubChem BioAssay)
